BJeLR viab HTS: compounds reducing viability of BJeLR cells; BJeLR fibroblasts viability, CellTiterGlo ATP luminescence, 48 h; HRASV12, hTERT and SV40 LT/ST transformed; viability loss activity score, % (concentration not given with the values); 0.64% of 30,000 active; AID 2275; in the data active = viability loss activity score above about 50%; about a fifth of its hits are not listed in these tables;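 also: higher score means fewer live cells and less ATP luminescence; stock transfer was 50 or 100 nL into about 30 µL; 0% = vehicle wells and 100% = a reference killing control; one replicate is shown; the record names a cut of 85%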
A1 inh: A1 inhibition; MEF A1-2A-BIM cells, caspase-Glo luminescence, 3 h; percent of clofoctol signal, DMSO as zero; caspase activation, % (no concentration beside the values); 0.51% of 21,000 active; AID 2241;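 active = most replicate scores above 10, or exactly half above 10 with mean activity above 10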;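 also: effector caspase 3 and 7 activity cleaving a DEVD luciferin substrate; 50 nL library stock added to about 30 µL; numbers are from one replicate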
* = called active by the depositor; nt = no result given.

Structure	BJeLR viab HTS	A1 inh
COc1ccc(NC(=O)N(C)C[C@@H]2Oc3ccc(NC(=O)Nc4ccccc4)cc3C(=O)N([C@H](C)CO)C[C@@H]2C)cc1	2.2	0.1
COc1ccc(NC(=O)Nc2cccc3c2O[C@@H](CN(C)C(=O)Nc2ccc4c(c2)OCO4)[C@H](C)CN([C@@H](C)CO)C3=O)cc1	-3.1	nt
CCC1CCCCN1CCCNc1nc(=S)[nH]c2ccccc12 (centres undefined)	5.3	-0.8
Cc1ccc(S(=O)(=O)c2cc3c(=O)n4ccccc4nc3n(Cc3ccccc3)c2=N)cc1	15	2.0
O=C(NCc1ccccn1)c1ccc(Cn2cc(Br)cn2)o1	1.0	nt
CC[N+]1=C(C)C(C)(C)c2cc(-c3ccccc3)ccc21	3.9	-0.1
Cc1ccc(S(=O)(=O)N(C)C[C@@H]2Oc3c(NS(=O)(=O)c4ccc(F)cc4)cccc3C(=O)N([C@H](C)CO)C[C@H]2C)cc1	-1.9	nt
C=C1C(=O)O[C@@H]2/C=C(\CO)CCC/C(C)=C/[C@H](O)C12 (some centres undefined)	15	-0.2
C[C@H](CO)N1C[C@H](C)[C@H](CN(C)Cc2ccc(-c3ccccc3)cc2)Oc2ccc(NC(=O)Nc3ccc(C(F)(F)F)cc3)cc2C1=O	3.2	-0.3
NNC(=O)CC12CC3CC(CC(C3)C1)C2	0.3	0.5
C[C@H]1CN([C@@H](C)CO)C(=O)c2cccc(NS(C)(=O)=O)c2O[C@H]1CN(C)Cc1ccc(C(=O)O)cc1	-6.8	nt
N#C/C(=C/c1ccc(O)c(O)c1)C(=O)OC/C=C/c1ccccc1	-1.1	-1.1
C[C@H](CO)N1C[C@H](C)[C@@H](CN(C)S(=O)(=O)c2ccc(Cl)cc2)Oc2c(NC(=O)NC3CCCCC3)cccc2C1=O	-0.3	nt
O=Nc1c(-c2c(O)[nH]c3ccc(S(=O)(=O)O)cc23)[nH]c2ccccc12	5.3	-1.3
O=C1CSC(=O)N1Cc1ccc(CN2C(=O)CSC2=O)cc1	-0.5	nt
Cc1[nH]n(-c2ccccc2)c(=O)c1Sc1ccc(Cl)cc1	4.4	0.9
O=C(CSc1nnc(CNC(=O)c2ccco2)o1)c1ccccc1	9.3	nt
CC(C)NC(=O)C(Cc1ccccc1)N1C(=O)c2ccccc2C1=O (centres undefined)	-4.6	-0.2
CCOc1ccccc1C1CC(=O)NC(C)=C1C(=O)OCC1CCCCC1 (centres undefined)	0.3	nt
CC1CCN(C(=O)CN(C)S(=O)(=O)c2cccc3nsnc23)CC1	0.3	nt
COc1ccc(CN(C(=O)c2cccc(Cl)c2)C2CCS(=O)(=O)C2)cc1OC (centres undefined)	-2.2	0.2
Cc1ccc(OC(=O)c2cc3ccccc3o2)cc1	-4.5	-0.7
Cc1oc(C(C)(C)C)cc1C(=O)NCc1csc2ccc(Cl)cc12	-7.4	nt
CN(C)CCN(C(=O)C1CCCCC1)c1nc2ccc(Br)cc2s1	2.4	-1.1
CC(C)c1cccc(C(C)C)c1OC(=O)NC(=O)c1c(F)cccc1F	-3.4	0.7
Cc1c(C(=O)Nc2ccc(S(=O)(=O)N3CCCCC3C)cc2)oc2ccccc12 (centres undefined)	0.9	0.0
CCC(Cc1ccccc1)NC(=O)c1ccc2nc(-c3ccccc3NC(C)=O)c(=O)[nH]c2c1 (centres undefined)	8.3	nt
C[C@H]1CN([C@@H](C)CO)C(=O)c2cccc(NC(=O)c3cnccn3)c2O[C@H]1CN(C)S(C)(=O)=O	3.0	nt
CNC[C@@H]1Oc2ccc(NC(=O)Nc3c(C)noc3C)cc2C(=O)N([C@H](C)CO)C[C@H]1C	-0.6	16*
O=C(NCCc1ccccn1)c1ccc2nccnc2c1	0.3	0.7
COc1ccc(NC(=O)Nc2ccc3c(c2)C(=O)N([C@@H](C)CO)C[C@H](C)[C@@H](CN(C)S(C)(=O)=O)O3)cc1	3.1	0.2
Cc1nn(-c2ccccc2)c(-n2cccc2)c1C(=O)N1CCCC1	-2.7	0.3
Cc1ccc(/C(N)=N/O)cc1	-3.6	0.1
Cc1ccccc1CSCc1ccc(C(=O)NCc2cccs2)o1	1.7	-0.4
CC1=CS(=O)(=O)CC1SC(=S)N(C)C1CCS(=O)(=O)C1 (centres undefined)	0.4	0.1
COc1ccc(NC(=O)N(C)C[C@H]2Oc3c(NC(=O)Nc4c(C)noc4C)cccc3C(=O)N([C@H](C)CO)C[C@H]2C)cc1	7.3	nt
CCN1CCN(c2cc(C)c3cc(NC(=O)CC4CCCCC4)ccc3n2)CC1	13	nt
COc1cc(Cl)c(C)cc1NC(=S)N(Cc1ccc(C)cc1)Cc1ccco1	4.6	nt
Cc1nnc(-c2ccccc2)c(=O)n1/N=C/c1ccc2c(c1)OCO2	8.8	-1.0
CCOC(=O)c1c(/N=C/C2C(=O)c3ccccc3C2=O)sc(C)c1C	-3.8	0.5
O=C(NCc1ccco1)c1cccc(N2CCCC2=O)c1	2.4	nt
CN(C)/C=C/C(=O)c1ccsc1	0.0	0.0
C[C@H]1CN([C@@H](C)CO)C(=O)c2cccc(NC(=O)C3CCOCC3)c2O[C@@H]1CN(C)S(=O)(=O)c1ccc(F)cc1	5.0	nt
C[C@@H]1CN([C@@H](C)CO)C(=O)c2cccc(NC(=O)c3nc4ccccc4s3)c2O[C@@H]1CN(C)Cc1ccc(Cl)c(Cl)c1	-4.4	nt
CC(C)CCOc1ccccc1C(N)=O	0.5	-0.5
C[C@H](CO)N1C[C@H](C)[C@H](CN(C)S(=O)(=O)c2ccc(F)cc2)Oc2ccc(NC(=O)CCC(F)(F)F)cc2C1=O	6.5	0.3
C[C@@H]1CN([C@H](C)CO)C(=O)c2cc(N(C)C)ccc2O[C@@H]1CN(C)Cc1ccc(Oc2ccccc2)cc1	-3.6	0.3
Cc1c(C(=O)NCc2ccccc2)oc2ccc(S(=O)(=O)N3CCCC3)cc12	4.8	nt
CC(=O)O[C@H]1C[C@@H](OC(C)=O)C(C)(C)C2C[C@@H](OC(C)=O)[C@@]3(C)C4=CC(=O)O[C@@H](c5ccoc5)[C@]4(C)CCC3[C@]21C (some centres undefined)	-2.9	0.0
O=C(O)c1ccc(-c2nnc(-c3ccccc3Cl)o2)cc1	2.8	-7.4

Continued.
Structure	BJeLR viab HTS	A1 inh
COc1ccc(S(=O)(=O)Nc2cccc3c2O[C@H](CN(C)C)[C@H](C)CN([C@@H](C)CO)C3=O)cc1	-2.5	nt
COc1ccc(S(=O)(=O)N(C)C[C@H]2Oc3c(NC(=O)c4cc(C)nn4C)cccc3C(=O)N([C@@H](C)CO)C[C@@H]2C)cc1	19	nt
CCc1n[nH]c(=S)c2cc3sccc3n12	-1.6	-0.6
COC(=O)c1cc(OC)c(OC)cc1NS(=O)(=O)c1ccsc1C(=O)OC	2.6	nt
Cc1ccc(C(=O)Oc2ccc(/C=N/c3cccs3)cc2)cc1	-2.6	nt
Cc1cc(Oc2ccccc2)nc(Oc2ccc(OCCOc3ccc(Br)cc3)nn2)n1	2.0	0.0
CCCNC(=O)c1cc(=O)n(Cc2ccc(Cl)cc2)c2ccccc12	2.4	0.7
C[C@@H]1CN([C@@H](C)CO)C(=O)c2cc(NS(=O)(=O)c3ccc(F)cc3)ccc2O[C@@H]1CN(C)S(=O)(=O)c1cccs1	-1.0	-0.4
CSCCC(NC=O)C(=O)NC(Cc1ccccc1)C(=O)O (centres undefined)	-12	0.6
CC(C)=CCOc1cc(C)cc2oc(=O)cc(-c3ccccc3)c12	-1.0	-1.3
O=C(CCS(=O)(=O)c1cccc2nonc12)NCc1ccc(Cl)cc1	-3.4	nt
Oc1ccc2c(c1O)OCC1c3cc4c(cc3OC21)OCO4 (centres undefined)	-3.5	-0.4
CC(=O)N1c2ccc(S(=O)(=O)N3CCCCC3)cc2CC1C (centres undefined)	3.9	nt
Cc1ccc(S(=O)(=O)Nc2ccc3c(c2)C(=O)N([C@@H](C)CO)C[C@H](C)[C@H](CN(C)S(=O)(=O)c2ccc(Cl)cc2)O3)cc1	2.6	-0.6
CC(C)(C)c1csc(Cc2ccc(-c3csnn3)cc2)n1	4.7	-0.2
C[C@@H]1CN([C@@H](C)CO)C(=O)c2cccc(NC(=O)C3CCOCC3)c2O[C@H]1CN(C)Cc1ccc2c(c1)OCO2	4.1	nt
CCOC(=O)C[n+]1ccccc1C	-5.5	0.2
C[C@H]1CN([C@@H](C)CO)C(=O)c2cccc(NC(=O)C3CCOCC3)c2O[C@@H]1CN(C)Cc1ccc(-c2ccccc2)cc1	-4.8	nt
CCN(CC)CCOc1ccc(/C(=C(/Cl)c2ccccc2)c2ccccc2)cc1	-3.2	-0.3
C[C@@H]1CN([C@H](C)CO)C(=O)c2cccc(N(C)C)c2O[C@@H]1CN(C)C(=O)Nc1cccc2ccccc12	-5.9	nt
Cc1ccc(S(=O)(=O)Nc2cccc3c2O[C@@H](CN(C)C(=O)Nc2ccc(C(F)(F)F)cc2)[C@@H](C)CN([C@@H](C)CO)C3=O)cc1	-2.1	nt
C[C@H](CO)N1C[C@H](C)[C@H](CN(C)Cc2ccc(Oc3ccccc3)cc2)Oc2c(NC(=O)Nc3ccccc3)cccc2C1=O	2.9	nt
CC(CNC1CCCCC1)OC(=O)c1ccccc1 (centres undefined)	21	-1.0
C[C@@H]1CN([C@@H](C)CO)C(=O)c2cccc(NC(=O)Nc3ccc(F)cc3)c2O[C@@H]1CN(C)C(=O)NC1CCCCC1	-4.5	nt
O=c1cc(/C=C/c2ccccc2)oc2ccccc12	-0.6	-5.4

A run of entries from the list above, for reference:
Structure	BJeLR viab HTS	A1 inh
C[C@@H]1CN([C@@H](C)CO)C(=O)c2cccc(NC(=O)Nc3ccc(F)cc3)c2O[C@@H]1CN(C)C(=O)NC1CCCCC1	-4.5	nt
O=c1cc(/C=C/c2ccccc2)oc2ccccc12	-0.6	-5.4

Looked up above:
O=c1cc(/C=C/c2ccccc2)oc2ccccc12 in A1 inh: -5.4
COC(=O)c1cc(OC)c(OC)cc1NS(=O)(=O)c1ccsc1C(=O)OC in BJeLR viab HTS: 2.6
CC(C)=CCOc1cc(C)cc2oc(=O)cc(-c3ccccc3)c12 in A1 inh: -1.3
COc1ccc(S(=O)(=O)N(C)C[C@H]2Oc3c(NC(=O)c4cc(C)nn4C)cccc3C(=O)N([C@@H](C)CO)C[C@@H]2C)cc1 in BJeLR viab HTS: 19

(list continues)
Structure	BJeLR viab HTS	A1 inh
C[C@H]1CN([C@@H](C)CO)C(=O)c2cccc(NC(=O)c3ccc(-c4nccs4)cc3)c2O[C@@H]1CN(C)S(=O)(=O)c1ccccc1	-1.7	nt
S=C(NC1CCCCC1)Sc1ccc(Cl)cc1	2.8	1.8
CC(C)OC(=O)CSc1nc2ccccc2[nH]1	2.6	-1.6
CNC[C@H]1Oc2ccc(N(C)C)cc2C(=O)N([C@H](C)CO)C[C@H]1C	-11	0.0
CC(C)NC(=O)N(C)C[C@H]1Oc2ccc(NC(=O)Nc3ccccc3)cc2C(=O)N([C@H](C)CO)C[C@@H]1C	-6.4	-0.2
CC(C)NC(=O)N(C)C[C@@H]1Oc2c(NC(=O)C3CCCCC3)cccc2C(=O)N([C@@H](C)CO)C[C@@H]1C	5.5	nt
O=C(/C=C/c1ccco1)Nc1cccc2cccnc12	-2.1	-3.4
C[C@@H]1C(=O)O[C@H](C)[C@H]1C[C@@H](O)[C@](C)(O)[C@H]1CC[C@@]2(O)C3=CC(=O)[C@@H]4C[C@@H](O)[C@@H](O)C[C@]4(C)C3CC[C@]12C (some centres undefined)	-0.8	0.1
NC(N)=Nc1nc2ccccc2s1	2.3	-2.0
Cc1noc2ncnc(SCc3ccc(C(F)(F)F)cc3)c12	-11	-0.4
Cc1noc(C)c1NC(=O)N(C)C[C@H]1Oc2ccc(NC(=O)CCC(F)(F)F)cc2C(=O)N([C@@H](C)CO)C[C@@H]1C	-2.6	-0.4
CC(C)(C)C(=O)NCc1cn2ccsc2n1	8.9	-6.6
C[C@H]1CN([C@@H](C)CO)C(=O)c2cccc(NC(=O)c3nc4ccccc4s3)c2O[C@H]1CN(C)S(C)(=O)=O	-0.3	nt
Cc1c(Cl)cccc1NC(=S)N1CCCN(c2nc3ccc(Cl)cc3s2)CC1	15	0.1
C=C1C[C@@]23CC[C@@H]4[C@](C)(CO)CCC[C@@]4(C)[C@@H]2CC[C@@H]1C3	-1.5	-0.5
C[C@@H]1CN([C@@H](C)CO)C(=O)c2cccc(NC(=O)c3ccc(-c4nccs4)cc3)c2O[C@@H]1CN(C)Cc1ccc(C(F)(F)F)cc1	5.5	nt
COc1ccc(S(=O)(=O)Nc2ccc3c(c2)C(=O)N([C@@H](C)CO)C[C@@H](C)[C@@H](CN(C)S(=O)(=O)c2ccc(C)cc2)O3)cc1	-3.1	0.3
COc1ccc(CCCc2nnc(SCC(=O)NN)o2)cc1	-2.1	nt
CC1CCC2(C)C(C(=O)O)=CCCC2C1(C)CCC1=CC(=O)OC1O (centres undefined)	-0.4	-0.7
Cc1ccc(-c2nc3cnccn3c2NC2CCCCC2)o1	-7.1	nt
C[C@@H]1CN([C@@H](C)CO)C(=O)c2cccc(NS(=O)(=O)c3cccs3)c2O[C@H]1CN(C)Cc1ccc(Oc2ccccc2)cc1	-0.9	nt
CCCNC(=O)c1cc(S(=O)(=O)N2CCc3ccccc32)cn1C	14	0.0
C[C@H]1CN([C@@H](C)CO)C(=O)c2cc(NC(=O)CCN3CCOCC3)ccc2O[C@H]1CN(C)S(=O)(=O)c1ccccc1	2.0	1.8

High-throughput results from PubChem.

These rows are one share of the data (hit frequency here may not be typical).
